# Source: PubChem
# RecA intein inh = inhibitors of M. tuberculosis RecA intein splicing. cell-free RecA intein splicing, fluorescence. inhibition, %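 (about 9 µM by stock and volumes)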. 0.75% of 290,000 active; in the data active = inhibition above about 30%;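 also: 0% = vehicle wells and 100% = reference inhibitor control wells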
# Target sequence (P9WHJ3 whole entry, looked up): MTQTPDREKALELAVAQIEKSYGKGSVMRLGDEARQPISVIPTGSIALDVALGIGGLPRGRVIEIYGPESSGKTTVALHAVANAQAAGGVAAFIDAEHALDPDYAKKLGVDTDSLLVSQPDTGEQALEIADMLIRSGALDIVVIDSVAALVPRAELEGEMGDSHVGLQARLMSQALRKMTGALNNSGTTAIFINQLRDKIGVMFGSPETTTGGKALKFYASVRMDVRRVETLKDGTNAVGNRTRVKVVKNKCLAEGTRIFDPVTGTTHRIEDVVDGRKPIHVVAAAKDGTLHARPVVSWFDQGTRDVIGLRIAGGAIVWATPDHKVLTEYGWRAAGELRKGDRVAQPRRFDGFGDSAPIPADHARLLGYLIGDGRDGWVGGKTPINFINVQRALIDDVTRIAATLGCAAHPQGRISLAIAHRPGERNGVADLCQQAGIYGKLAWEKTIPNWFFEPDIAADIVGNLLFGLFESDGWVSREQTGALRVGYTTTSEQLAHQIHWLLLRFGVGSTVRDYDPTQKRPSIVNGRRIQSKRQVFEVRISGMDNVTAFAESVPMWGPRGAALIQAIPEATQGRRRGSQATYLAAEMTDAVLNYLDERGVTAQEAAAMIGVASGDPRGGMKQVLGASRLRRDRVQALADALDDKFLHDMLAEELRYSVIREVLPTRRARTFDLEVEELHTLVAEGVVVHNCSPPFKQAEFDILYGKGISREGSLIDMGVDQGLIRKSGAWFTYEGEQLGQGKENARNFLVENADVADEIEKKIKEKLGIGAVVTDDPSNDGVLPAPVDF
# Mtb bLac sens = beta-lactam sensitization of Mtb H37Rv; M. tuberculosis H37Rv growth with meropenem, percent inhibition; hits of this screen are not shown here; inhibition, % at 25 µM; 0.27% of 330,000 active;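 active = about 74% or more and at least 40 points above the plate without the antibiotic, then above 30% in a dose series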;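 also: growth measured after seven days incubation then overnight dye step; 0% = bacteria only wells and 100% = bacteria with antibiotic; twin plates without the antibiotic show which effects depend on it; some results filed as inactive read as strong as hits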
# YopH inh = YopH (Yersinia) phosphatase inhibition; fluorescence Ex485/Em525; inhibition, %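 (about 10 µM by stock and volumes)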; 0.16% of 140,000 active; AID 898;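 active = inhibition of 50% or more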;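 also: controls were vehicle for no effect and minimum signal wells for full effect; inactives centre near -20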
# Arbovirus anti = antivirals against arbovirus infection. arbovirus infection cell-based antiviral screen. 0.37% of 200,000 active. inhibition, % at 10 µM;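 active = inhibition from about 30%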;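 also: bluetongue infection of BSR cells; cell survival read as ATP light after 72 h; 0% = infected wells without compound and 100% = uninfected wells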
# Mtb H37Rv = M. tuberculosis H37Rv growth inhibitors, H37Rv strain (AID 1626); M. tuberculosis H37Rv growth inhibition; higher % means a stronger effect; one-dose inhibition, % at 10 µM; IC50 in µM for titrated hits; 0.95% of 220,000 active;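 active = confirmed in a dose series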;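 also: bacteria incubated seven days before Alamar blue readout; 0% = bacteria only wells and 100% = bacteria with antibiotic wells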
# Arbovirus anti repeat = further read-out of Arbovirus anti, marked with its call; inhibition, %; measured here: 10K subset replicate screen; many hits read low in the repeat;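 first of two repeat runs on a subset; 0% = infected and 100% = uninfected wells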
# * marks the source's active call; other numbers are inactive results; · = not tested or not shown; & = joins results of further samples.
SMILES,RecA intein inh,Mtb bLac sens,YopH inh,Arbovirus anti,Mtb H37Rv,others
C[C@]12C=CC(=O)C=C1CC[C@@H]1[C@@H]2C(=O)C[C@@]2(C)[C@H]1CC[C@]2(O)C(=O)CO,1.4,-6&-1,·,·,·,
COC(=O)CC1(C(=O)OC)Oc2ccc(Br)cc2C(=O)N1c1cc(Cl)cc(Cl)c1 (stereo unspecified),-1.0,2,·,·,-7%,
CSc1cc(-c2ccc(Cl)cc2)c(C(=O)NC(C)C)s1,1.3,5,-23,-2,2%,
NC(=O)c1cccnc1OCC(F)(F)F,-1.8,0,·,·,-14%,
COc1cc(-c2nc3ccccn3c2/N=C/c2cccc(F)c2)ccc1O,-56,1,·,2,-5%,
Cn1c(Cc2cccs2)nnc1SCC(=O)Nc1ccc(C(N)=O)cc1,2.9,-2,·,·,·,
c1ccc(CCn2nnnc2C(c2cccnc2)N2CCOCC2)cc1 (stereo unspecified),-2.5,-4,·,5,-1%,
CCCN(CCC)C(=O)COc1cc(=O)n(CC)c2ccccc12,-1.6,-3,-26,-6,-8%,Arbovirus anti repeat=-4
COc1ccc(-c2nnc(SCc3nnc(-c4ccccc4)o3)n2C)cc1OC,3.4,-11,-40,1,-12%,
CCNC(=O)C1CC(=O)N(Cc2ccc(F)cc2)C(=Nc2ccc(OC)cc2)S1 (stereo unspecified),1.6,20,-30,0,14%,
COC(C[C@@H](O)CC(=O)[C@@H](C)OCc1ccccc1)OC,4.0,·,·,·,-14%,
O=C1CSc2ccccc2N1Cc1ccc(F)cc1,2.1,46,-37,6,7%,
CC1Cc2ccccc2N1C(=O)COC(=O)Cc1ccc(F)cc1 (stereo unspecified),3.1,32,·,·,·,
O=C(CN(C(=O)CNS(=O)(=O)c1ccccc1)c1ccc2c(c1)OCCO2)NCc1ccco1,-0.8,-12,-33,-2,2%,
Cn1c(S(=O)(=O)O)nc2ccccc21,-1.1,-5,·,·,-4%,
COc1ccc(C(=O)N2CCCC(c3ccccc3)=N2)cc1,3.0,17,·,13,-3%,
CC(O)[C@@H](C(=O)N1CCNCC1)n1cc(CCCCN)nn1 (stereo partly specified),-1.2,-2,·,9,-10%,
NC(=O)c1ccccc1NC(=O)CCCc1ccccc1,-0.2,8,·,·,·,
CC(=O)/C(=N/Nc1ccc(C)cc1)Sc1nnc(CCc2ccccc2)n1-c1ccccc1,1.8,-3,-31,-2,79%,
C(=N\Nc1ccccn1)/c1c[nH]c2ccccc12,-1.3,4,·,·,1%,
COc1cccc(NC(=O)C(OC(=O)/C=C/c2ccc3c(c2)OCO3)c2ccccc2)c1 (stereo unspecified),1.4,5,-2,1,-3%,
Cc1ccc(-c2cc(C(=O)Nc3ccccc3C(N)=O)c3ccccc3n2)o1,-5.6,67,·,·,·,
CCc1ccc(NC(=O)Cn2nc(C(=O)O)c3ccccc3c2=O)cc1,-1.8,-3,·,·,·,
CCc1noc(C)c1C(=O)OCC(=O)NC(=O)c1ccccc1OC,-3.4,5,·,·,·,
CCOc1cc2[nH]c(=O)n(CCCC(=O)NCc3ccc(OC)cc3)c(=O)c2cc1OCC,-0.6,2,-8,-2,0%,
COc1ccc(S(=O)(=O)N2CCOC2CNC(=O)C(=O)NCCc2ccccc2)cc1C (stereo unspecified),-4.8,1,·,·,·,
O=C(O)c1cc(=O)n(Cc2ccccc2)c(=O)[nH]1,0.1,-2,·,·,·,
O=C(c1cccs1)c1c[nH]cc1-c1ccccc1,6.9,0,·,·,·,
COc1ccc(C(=O)Oc2ccc3ccc(=O)oc3c2)cc1OC,-6.4,25,·,·,·,
O=C(Cn1cc(C(=O)c2ccco2)c2ccccc21)NC1CCCCC1,0.5,1,·,10,7%,
O=[N+]([O-])c1cc(-c2nnc(Nc3ccccc3)c3ccccc23)ccc1N1CCOCC1,·,-1,-30,-11,-2%,
Cc1ccc(S(=O)(=O)n2ccc3c2CCCC3=O)cc1,0.1,-1,·,·,·,
COc1cccc(-c2cc3c(-n4cccc4)ncnc3o2)c1,0.9,3,-7,7,5%,
CCCc1[nH]n(-c2ccc(F)cc2)c(=O)c1C=Nc1cccc(F)c1,0.4,5,-21,-12,1%,
Cc1ccccc1NC(=O)Cc1nc(COC(=O)COc2cccc(C)c2C)cs1,-1.9,25,·,·,·,
CCN(CC)S(=O)(=O)c1ccc2c(c1)nc(CCC(=O)Nc1ccc(N3CCOCC3)cc1)n2C,-5.3,-5,·,14,49%,
Cc1cccc(Cn2cnc3c(N)c(C)c(C)cc32)c1,0.9,-1,·,-6,-1%,
CCNC(=O)NC(=O)C(C)OC(=O)CCCSc1nc2ccccc2s1 (stereo unspecified),1.7,-2,-29,11,0%,
Cc1ccc[n+](CC(=O)Nc2ccc([N+](=O)[O-])cc2Cl)c1,-1.5,0,-35,5,-11%,
Cc1c(CCC(=O)O)c(=O)oc2cc3occ(-c4ccccc4)c3cc12,-0.8,60,·,·,3%,

# Reprinted from the part before: three entries; new compounds follow.
SMILES,RecA intein inh,Mtb bLac sens,YopH inh,Arbovirus anti,Mtb H37Rv,others
CCNC(=O)NC(=O)C(C)OC(=O)CCCSc1nc2ccccc2s1 (stereo unspecified),1.7,-2,-29,11,0%,
Cc1ccc[n+](CC(=O)Nc2ccc([N+](=O)[O-])cc2Cl)c1,-1.5,0,-35,5,-11%,
Cc1c(CCC(=O)O)c(=O)oc2cc3occ(-c4ccccc4)c3cc12,-0.8,60,·,·,3%,
CCC(C)NC(=O)c1ccc(CSCc2ccc(Cl)cc2)o1 (stereo unspecified),8.3,3,·,·,·,
Cc1cccc(S(=O)(=O)N(CC(=O)Nc2ccccc2C)Cc2ccco2)c1,-0.3,0,-19,2,-1%,
COc1cc(NC(=O)CCS(=O)(=O)c2ccc3c(c2)n(C)c(=O)c(=O)n3C)cc(OC)c1,-0.1,3,·,·,·,
CC(c1c(O)c2ccccc2[nH]c1=O)C1(C)CCC(O)C(C)(C)O1 (stereo unspecified),0.7,10,·,1,1%,
O=C(c1ccnc(Cl)c1)N1CCCC(Nc2ccc(F)cc2)C1 (stereo unspecified),-0.1,4,·,·,·,
FC(F)(F)c1ccccc1NC(=S)N1CCN(c2ncccn2)CC1,-2.5,-7,-38,5,2%,
Cc1cc(C)cc(CC(Cc2nc3ccccc3[nH]2)c2nc3ccccc3[nH]2)c1 (stereo unspecified),36*,90,-26,-20,13%,
O=C(CCCCl)Nc1nc(-c2ccc3c(c2)OCCO3)cs1,1.1,8,·,·,·,
O=C(C(=O)N1CCCC1CO)N1CCCC1CO (stereo unspecified),0.3,-1,·,3,-8%,
CCOCCCN(C(=O)Cn1nnc(-c2ccc(C)o2)n1)C(C(=O)NCC1CCCO1)c1ccc(F)cc1 (stereo unspecified),1.2,2,·,·,0%,
CCN1CCN(Cc2cc(=O)oc3ccc(C)cc23)CC1,-0.7,2,·,·,-3%,
CC(C)(C)NC(=O)CN(C(=O)c1snc(C(=O)NC2CCCCC2)c1N)c1ccc(F)cc1,-50,21,·,·,·,
Nc1nc(N)c2sc3nc(C(F)(F)F)cc(C(F)(F)F)c3c2n1,-7.7,19,33,-18,5%,
Nc1nc(-c2ccco2)nn1C(=O)c1ccc(Cl)cc1,34*,2,-93,-5,·,
CCOC(=O)C1(CC2CCCCO2)CCN(S(=O)(=O)c2cc(C)cs2)CC1 (stereo unspecified),2.1,-1,·,-5,0%,
COc1ccc(CCNCc2ccccn2)cc1OC,-1.2,-3,-20,13,-1%,
CC1CCCC(C)N1C(=O)CSc1nc2ncnc(N)c2[nH]1 (stereo unspecified),-1.6,-1,0,-4,-12%,
CC(C)c1cccc(C(C)C)c1NC(=O)CN1CCCC1,-1.2,2,·,·,·,
CCCCc1cc(=O)oc2cc(C)cc(OCC(=O)Nc3ccccn3)c12,-0.5,2,·,·,·,
CCn1cc(CNC(=O)c2ccc(C)s2)cn1,-1.3,0,·,10,-1%,
N#C/C(=C\c1ccc(-c2cccc([N+](=O)[O-])c2)o1)c1nnc(N2CCOCC2)n1-c1ccccc1,-6.9,-7,·,-12,-6%,
Cc1cc2cc(CNC(=O)Cc3ccc([N+](=O)[O-])cc3)ccc2[nH]1,-0.4,2,·,-7,13%,
N#Cc1cnn2c(-c3cccc(C(F)(F)F)c3)ccnc12,-2.0,4,·,·,6%,
COc1cc(CNCc2cccnc2)ccc1OCC(=O)NC(C)(C)C,1.2,-7,·,-2,-2%,
CCOc1cc(C2C(C#N)=C(N)SC(N)=C2C#N)ccc1OCCN1CCOCC1,-3.2,12,-29,3,-4%,
Cc1nc(C)c(-c2csc(Nc3ccc(C(=O)O)c(O)c3)n2)s1,-0.5,84,·,·,·,
COc1ccccc1NS(=O)(=O)c1ccc(NN=C2CCCCC2)c([N+](=O)[O-])c1,0.5,0,-18,-2,-9%,
Cc1cc(NC(=O)c2ccccc2Cl)ccc1NC(=O)c1ccccc1Cl,-3.6,2,·,·,·,
COc1ccc(-c2cc(C(=O)NCc3cccnc3)no2)cc1,0.2,-6,-14,-9,5%,
COc1ccc(NC(=O)C2CCN(C(=O)c3ccccc3)CC2)c(OC)c1,·,8,-25,12,-8%,Arbovirus anti repeat=2
CO/N=C(\C)c1ncc(C(F)(F)F)cc1N1CCOCC1,0.3,0,-14,3,4%,
CC1CCCN(C(=O)C2COc3ccccc3O2)C1 (stereo unspecified),-3.1,1,·,·,·,
O=C(CC1CC2CCC1C2)NC1CCCCCCC1 (stereo unspecified),0.4,9,·,·,·,
O=C(O)c1cnc(-c2ccccc2)nc1Sc1ccc(Cl)cc1,·,15,-16,66*,9%,
CCNC(=S)N/N=C/c1cn(Cc2ccccc2F)c2ccccc12,-0.9,-3,-21,-4,2%,
COc1ccc(S(=O)(=O)NCCCN2CCCC2=O)cc1OC,-0.9,-5,·,·,·,
O=C(N/N=C/c1cccnc1)c1ccc(NC(=O)c2ccc(Cl)cc2)cc1,-3.3,-3,·,·,·,
NC(=O)CC1NC(=O)c2cc([N+](=O)[O-])cc(I)c2OCCC(C(N)=O)NC(=O)[C@@H]2CCCN2C1=O (stereo partly specified),·,-16,2,8,-5%,
Cc1ccc(OCc2nc(-c3ccc(-n4cccc4)cc3)no2)cc1C,1.1,-2,-37,3,-1%,
CCc1ccc(-c2nc(-c3ccncc3)no2)cc1,·,37,-25,4,61%,
O=[N+]([O-])c1ccc(NCCNS(=O)(=O)c2ccccc2)c(C(F)(F)F)c1,5.0,-1,-46,-1,8%,
CCOC(=O)c1ccc(N2CCN(c3ccc(F)cc3)CC2)c(NC(=O)Nc2cccc(OC)c2)c1,-0.2,-4,-4,2,24%,
O=C(CN(C(=O)c1csnn1)c1cccc(F)c1)NCc1ccc(F)cc1,0.3,-5,·,0,-4%,
COc1ccc(N(CCN2C(=O)c3ccccc3C2=O)C(=O)c2cccc([N+](=O)[O-])c2)cc1,4.0,-6,-22,8,-4%,
CC(C)Cc1nc(Cl)c(C#N)c2c1CCC2,-0.4,-11,·,·,-9%,
CCCn1c(=O)c2ccccc2n2c(SCCOc3ccc(Cl)cc3)nnc12,3.3,5,-9,2,-9%,
Cc1cc(NC(=O)CCNS(=O)(=O)c2cc(Br)cnc2N)ccc1Br,6.2,56,-18,-4,23%,
Cc1ccc(-n2nc(C)c(Sc3ccccc3[N+](=O)[O-])c2N)cc1,6.0,15,6,-2,8%,
COc1ccccc1CCNC(=O)C(=O)NCC1OCCN1C(=O)c1ccc(Cl)cc1 (stereo unspecified),-2.1,-7,·,·,·,
Cc1ccc(O)c(NC2=C(Cl)C(=O)N(Cc3ccccc3)C2=O)c1,6.6,·,·,10,6%,
CCOc1ccc(C(=O)NCC(=O)NNC(=O)CN(C)S(=O)(=O)c2ccc(Cl)cc2)cc1,0.3,-4,·,·,·,
CC(=O)Nc1ccc(NC(=S)NC(=O)/C=C/c2ccc(Cl)cc2)cc1,-1.9,-2,·,-8,2%,
CCOc1ccc(Br)cc1S(=O)(=O)Nc1ccc(NC(=O)c2ccccc2C)cc1,4.7,-7,-32,-1,25%,
CCOC(=O)Cc1csc(SCC(=O)Nc2nccs2)n1,-2.4,2,·,·,·,
CC(C)(C)c1ccc(SCCc2ccncc2)cc1,12,5,·,·,·,
Cc1nc(SCC(=O)NCCc2ccccc2)c2oc3ccccc3c2n1,-2.9,2,24,-2,-3%,
COc1ccc(Nc2nc(C)nc3c2nnn3Cc2ccccc2)cc1OC,-0.1,20,-6,-9,5%,

# Of the compounds above, three contain bromine.
SMILES,RecA intein inh,Mtb bLac sens,YopH inh,Arbovirus anti,Mtb H37Rv,others
COC(=O)CC1(C(=O)OC)Oc2ccc(Br)cc2C(=O)N1c1cc(Cl)cc(Cl)c1 (stereo unspecified),-1.0,2,·,·,-7%,
Cc1cc(NC(=O)CCNS(=O)(=O)c2cc(Br)cnc2N)ccc1Br,6.2,56,-18,-4,23%,
CCOc1ccc(Br)cc1S(=O)(=O)Nc1ccc(NC(=O)c2ccccc2C)cc1,4.7,-7,-32,-1,25%,

# These rows are one share of the data; count on the stated rates, not on these rows.
